AmpC inh no det – blocks E. coli AmpC beta-lactamase in absence of detergent | P00811 | AmpC nitrocefin hydrolysis, absorbance 480 nm, no detergent; potencies from a single point are estimates | Potency, µM (doses to about 28.7 µM), inactives show at the top dose activity change, negative = inhibition | actives 1.8% (n = 71,000); active = falling curve, for most hits resting on a single point; inconclusive = weak or doubtful change; inactive = flat or rising curve; further: % of control where 0% means no effect; a quarter of the inactives give rising signals
Target sequence (P00811 whole entry, looked up): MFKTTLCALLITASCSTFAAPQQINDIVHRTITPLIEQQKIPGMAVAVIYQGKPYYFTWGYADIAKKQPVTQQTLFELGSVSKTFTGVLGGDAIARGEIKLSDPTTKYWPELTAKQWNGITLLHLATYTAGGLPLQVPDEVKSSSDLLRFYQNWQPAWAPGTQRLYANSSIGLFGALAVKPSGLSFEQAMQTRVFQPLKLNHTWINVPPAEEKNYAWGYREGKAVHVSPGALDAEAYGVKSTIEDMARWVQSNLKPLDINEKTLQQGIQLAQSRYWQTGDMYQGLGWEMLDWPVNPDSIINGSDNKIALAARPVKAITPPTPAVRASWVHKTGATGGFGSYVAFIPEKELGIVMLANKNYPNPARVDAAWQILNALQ
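AmpC in 20 mM phosphate buffer pH 7.0 was preincubated 15 min at room temperature with compounds. Nitrocefin (800 uM stock) was then added and hydrolysis followed at 480 nm every 20 s for 4 min.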
* = called active by the depositor; ? = inconclusive; & = joins results of further samples; [ ] = another dose, or the depositor's remark. Potency means the concentration at half of the fitted maximal effect. Some of the compounds tested (hit frequency here may not be typical).

SMILES | AmpC inh no det
CCc1c(C)nc(N)n2c(SCC(=O)N3CCCc4ccccc43)nnc12 | -3%
COc1ccc(N2CCN(C(=O)CSc3ncnc4c3cnn4-c3ccc(OC)cc3)CC2)cc1 | 5%
Cc1nn(-c2nc3ccccc3[nH]2)c(N)c1-c1ccccc1 | -6%
Nc1nonc1-c1nc2ccccc2n1Cc1ccc(Cl)cc1 | -8%
COC(=O)c1ccccc1NC(=O)N1c2ccccc2CC1C (stereo unspecified) | 8%
CCOC(=O)c1ccc(N2C(=O)c3n[nH]c(C)c3C2c2ccccc2)cc1 (stereo unspecified) | 9%
CC1C(C#N)=C(N)OC2=C1C(=O)CC(C)(C)C2 (stereo unspecified) | 1%
CN(C)C(=O)CN1C(=O)C2CCCCN2C(=O)c2ccccc21 (stereo unspecified) | -8%
CCN(CC)CCCNC(=O)c1cc2c(=O)n(C)c3ccccc3c2n1C | ?
CCOC(=O)N1CCN(C(=O)c2oc3ccc(S(=O)(=O)N4CCCCCC4)cc3c2C)CC1 | 121%
O=S(=O)(NC1=NCCCCC1)c1cccs1 | -23%
Cc1cc(NS(=O)(=O)c2ccc(NC(=O)Nc3cccc(Cl)c3)cc2)no1 | -24%
CN1CCN(C(=O)c2cc3c(n(-c4ccccc4)c2=O)CC(C)(C)CC3=O)CC1 | -10%
C=C1C(C(=O)N2CCOCC2)C1C(=O)N1CCOCC1 (stereo unspecified) | 2%
N#CC1=C(N)Oc2cc(O)ccc2C1C1CCCCC1 (stereo unspecified) | -9%
O=C(CSC1=NCCS1)N1CCOCC1 | -5%
COc1ccc(N2C(=O)C3CCCN3C2c2cccc(OC)c2)cc1 (stereo unspecified) | 23%
CCOC(=O)C1CCN(C(=O)Nc2ccc(Cl)cc2Cl)CC1 | 8%
COc1ccc(-n2nnc3c(=O)n(Cc4cccc(C)c4)cnc32)cc1 | 0%
CCn1c(C)nc2cc(C(=O)n3cc(C(=O)c4cc(F)ccc4O)cn3)ccc21 | 34%
NC(=O)CN1CCCC1=O | -2%[12.8 µM]
CCOC(=O)c1[nH]c(C)c(C(=O)NCc2ccc(C)cc2)c1C | 13%
COc1ccc(OC)c(NC(=O)Cc2nn(C)c(=O)c3ccccc23)c1 | -11%
CC(C)(C=O)Cc1cc(C(C)(C)C)c(O)c(C(C)(C)C)c1 | 11%&8%
CC(=O)Nc1cccc(-c2nc3ccccc3c(=O)o2)c1 | 4%
O=C(CSc1nnc2scc(-c3ccc(F)cc3)n12)NCc1ccco1 | 13%
CCNc1ncc2nc(-c3cccc(C#N)c3)c(=O)n(Cc3cccc(OC)c3)c2n1 | -6%
CCC(C)N(CCNC(=O)CC1Oc2ccc(C)cc2NC1=O)C1CCCCC1 (stereo unspecified) | 7%
CCCC[C@@H]1C[C@H]1C(NC(=O)c1ccccc1)c1ccc(C(F)(F)F)cc1 (stereo partly specified) | ?
CCOC(=O)c1cnc2c(C(=O)OC)cccc2c1NCCN1CCOCC1 | 17%
COC(=O)c1ccc(Oc2nc(C)cc(Oc3ccccc3)n2)cc1 | 55%
Cc1ccc(N2C(=O)CC(=O)NC2=O)cc1 | 0%
COc1ccc(C(=O)CSc2nnc(-c3ccco3)n2C)cc1 | 9%
O=C(c1ccc(CNc2c(N3CCOCC3)c(=O)c2=O)cc1)N1CC=C(c2ccccc2)CC1 | 63%
CCCCOCC(O)CN1CCN(C(C)=O)CC1 (stereo unspecified) | 6%
CCN1C(=O)c2cccc3c(S(=O)(=O)NC(Cc4c[nH]c5ccccc45)C(=O)O)ccc1c23 (stereo unspecified) | -8%
Cc1onc(-c2c(F)cccc2Cl)c1C(=O)N[C@H]1C(=O)N2[C@H]1SC(C)(C)[C@H]2C(=O)O | 0.0016µM*
CCN(C(=O)c1cc2cc3ccc(C)cc3nc2o1)c1ccc(OC)cc1 | 55%
COc1ccc(CCNC(=O)C2CCCN(Cc3nc(-c4cccc(Cl)c4)oc3C)C2)cc1OC (stereo unspecified) | 162%
NC(=O)c1cc(N)ccc1N1CCCC1 | 18%
Cc1cc(NC2C3CC4CC(C3)CC2C4)n2ncnc2n1 (stereo unspecified) | 43%
CCCCNC(=O)CN1CCC2(O)CCCCC2C1c1ccccc1OC (stereo unspecified) | 43%
COC(=O)c1ccc(CSc2ncnc3ccccc23)o1 | 78%
Cn1c(=O)[nH]c(=O)c2c1nc(N1CCNCC1)n2Cc1cccc2ccccc12 | 13%
CSc1ccc(C2C(C#N)=C(N)N(c3ccccc3)C3=C2C(=O)CCC3)cc1 (stereo unspecified) | 26%
COC(=O)c1sc2ccccc2c1N | -15%
CCCc1cc(=O)[nH]c(SCC(=O)N2CCN(S(=O)(=O)c3ccc(C)cc3)C2)n1 | 24%
Cc1cccc(NC(=O)CC(C)(C)C)c1 | -5%
Cn1cccc1C(=O)N1CCC2(CC1)CN(C(=O)Nc1cccc(F)c1)C2 | 25%
CCOC(=O)N1CCN(CC(=O)Nc2ccc(C)c(Br)c2)CC1 | 81%
C[C@@]12CC[C@@H]3c4ccc(O)cc4C[C@H](CCCCCCCCCS(=O)CCCC(F)(F)C(F)(F)F)[C@H]3[C@@H]1CC[C@@H]2O (stereo partly specified) | -4%
CC(=O)NC(c1ccccc1)c1nc2ccccc2[nH]1 (stereo unspecified) | -8%
Cc1cccc(C(=O)OCc2cc3ccccc3[nH]c2=O)c1 | -1%
COc1c[nH]n(C2CCCCC2)c(=O)c1=O | -1%
Cc1cc(NC(=O)COC(=O)c2c(C)nn(Cc3ccccc3)c2Cl)no1 | -15%
CCOC(=O)[C@H](N)/C=C(\C)CP(=O)(O)O | 4%
CS(=O)(=O)c1ccc(CNC(=O)[C@@H]2C[C@H]2[C@@H](NP(=O)(c2ccccc2)c2ccccc2)c2ccccc2)cc1 | 156%
CCCc1nc2ccccc2c(=O)n1/N=C/c1c(C)[nH]n(-c2ccc(C)cc2)c1=O | -20%
O=C(CSc1nnc(-c2cccnc2)n1Cc1ccco1)Nc1nc(-c2ccc(F)cc2)cs1 | 93%
Clc1cc2c(c(Cn3cnc4ccccc43)c1)OCOC2 | 37%

Additional results follow:
SMILES | AmpC inh no det
CC1(C)C(=O)N(CCN2CCC(C(=O)c3ccc(F)cc3)CC2)c2ccccc21 | 64%
Cc1oc(-c2ccc(Cl)cc2)nc1CN1CCCC(C(=O)N2CCc3ccccc32)C1 (stereo unspecified) | 68%
O=C1c2ccccc2C(=O)N1CCc1nn[nH]n1 | -1%
c1ccc2c(CN3CCN(C4CCCCC4)CC3)c[nH]c2c1 | -9%
Cc1noc(C)c1S(=O)(=O)Nc1c(C)n(C)n(-c2ccccc2)c1=O | -1%
C=CCn1c(=O)c2ccccc2n2c(SCc3cc(=O)n4ccsc4n3)nnc12 | -15%
CC(c1ccccc1)N1CNc2c(c(=O)n(C)c(=O)n2C)C1 (stereo unspecified) | -1%
COc1ccc(-c2noc(-c3ccc(Br)o3)n2)cc1OC | 9%
OC(COc1cccc2ccccc12)CN1CCN(c2ccccn2)CC1 (stereo unspecified) | 89%
COc1ccc(C(=O)N(CN2CCCC2=O)c2nccs2)cc1OC | 9%
Cc1[nH]n(-c2ccc(S(=O)(=O)O)cc2)c(=O)c1N=Nc1ccccc1 | 4%[5.75 µM]
CCSc1ncc(Cl)c(C(=O)N(Cc2ccc(N(C)C)cc2)C2CCS(=O)(=O)C2)n1 (stereo unspecified) | 92%
O=C(c1cc(-c2cccc(O)c2)on1)N1CCOCC1 | -2%
Cc1cc(-c2nn3c(C)nnc3s2)ccc1NC(=O)C(C)(C)C | 24%
Cc1ccc(C(CC(=O)O)Nc2nc(N3CCCCC3)nc(N3CCCCC3)n2)cc1 (stereo unspecified) | 96%
CCOc1ccc(-n2c(SCC(=O)Nc3cc(C)on3)nc3c([nH]c4ccccc43)c2=O)cc1 | 10%
COc1ccc(N2CC(C)Cn3c2nc2c3c(=O)[nH]c(=O)n2C)cc1 (stereo unspecified) | 4%
O=C(COc1ccc(C(=S)N2CCOCC2)cc1)N1CCCC1 | 1%
COc1ccccc1N1CCN(c2nc3ccccc3n3nnnc23)CC1 | 33%
Cn1c(Cn2c(=O)sc3ccccc32)nnc1SCC(=O)Nc1ccccc1 | 4µM*[single pt active]
O=C(O)c1cccnc1SC1CC(=O)N(c2cccc(C(F)(F)F)c2)C1=O (stereo unspecified) | 14%
COc1ccc(-c2nnc(SCC(=O)N3CCCC(C)C3)o2)c(OC)c1 (stereo unspecified) | 76%
CC(=O)N1c2c(cc(Br)cc2S(=O)(=O)NCc2cccnc2)CC1C (stereo unspecified) | 3%
Brc1cnc(N2CCOCC2)nc1N1CCCCC1 | 35%
CCn1c(=O)cc(OCC(=O)Nc2cccnc2)c2ccccc21 | 1%
CC(C)c1ccc(C2CC(=O)N3CN(Cc4ccco4)CSC3=C2C#N)cc1 (stereo unspecified) | -21%
CCC(c1nnnn1CCc1ccccc1)N(Cc1ccco1)Cc1cc2cc(C)cc(C)c2[nH]c1=O (stereo unspecified) | 56%
CCCC(=O)OCCNC(=O)c1cc2ccccc2oc1=O | 25%
CC(=O)NCCNc1nc(-c2cccc(NS(C)(=O)=O)c2)nc2ccccc12 | -1%
Cn1c(C(=O)N2CCCC(C(=O)NCCc3ccccc3)C2)cc2sccc21 (stereo unspecified) | 86%
COc1ccccc1CNc1cc(-c2ccoc2)ncn1 | 57%
COc1ccc(Nc2nc(C)cc(C)c2C#N)cc1 | 1%
Cc1ccc(SCc2cc(=O)[nH]c(N3CCN(Cc4ccc5c(c4)OCO5)CC3)n2)cc1 | 68%
COc1ccc(C(=O)Nc2ccccc2)cc1[N+](=O)[O-] | -17%
CC(=O)NC(Cc1c[nH]c2ccccc12)C(=O)OCC(=O)Nc1ccc2c(c1)OCO2 (stereo unspecified) | 18%
CCn1c(SCC(=O)c2ccccc2)nnc1-c1cc2cc(Br)ccc2o1 | 0%
CCOc1ccc(NS(=O)(=O)c2ccc(SC)cc2)cc1 | -4%
Cc1ccc2nc(NC(=O)CN3CCOCC3)sc2c1 | 29%
Cc1c(NC(=O)N2CCCCCC2)c(=O)n(-c2ccccc2)n1C | -2%
Cc1cc(C)c(NC(=O)c2cc3c(nc4sccn43)s2)c(C)c1 | -10%
COCC(=O)Nc1nnc(C2CCCCC2)s1 | -4%
CCc1ccc(O)c(N=Cc2ccccc2O)c1 | -20%
Cc1cccc(N(C2C=CS(=O)(=O)C2)S(=O)(=O)c2ccccc2)c1 (stereo unspecified) | 8%
CN1CCN(C(=O)C2C3C=CC(C3)C2C(=O)O)CC1 (stereo unspecified) | ?
Cc1nc(N2CCOCC2)c2oc3ccccc3c2n1 | 9%
CCNc1nc(Oc2ccc(=O)n(-c3ccccc3)n2)nc(N2CCOCC2)n1 | 35%
Cc1ccc(Cn2ccc(NC(=O)c3cc(-c4ccc(F)cc4)on3)n2)cc1 | 7.9µM*
COc1ccc(OC)c(C2=C[N+](=O)C(C)(C)C(C)(C)N2[O-])c1 | 6%
CC12CN3CC(C)(CN(C1)C3c1ccc3ccccc3c1O)C2=O (stereo unspecified) | -8%
Cc1ccc(-c2nnn(CC(=O)N(Cc3ccccc3)C(C(=O)NC3CCCC3)c3ccncc3)n2)o1 (stereo unspecified) | 88%
CCOc1cccc(C(=O)Nc2nnc(-c3ccco3)s2)c1 | -6%
Cn1c(O)c(C=Nc2ccc(Cl)cc2)c(=O)n(C)c1=O | -12%
COC(=O)[C@@]1(C)C=C[C@@H](Cc2ccccc2)N1C(C)=O | -2%
Nc1ccccc1C(=O)C[C@@H](N)C(=O)O | ?
CCOc1ncccc1C(=O)OCC(=O)c1cc(C)n(Cc2ccco2)c1C | 65%
Cc1ccc(S(=O)(=O)NCCCNC(=O)N2CCOCC2)cc1 | 0%
Cc1ccnc(NC(=O)C2CCC(CNc3c(N4CCCC4)c(=O)c3=O)CC2)c1 (stereo unspecified) | 15%

Among those listed so far, 18 have an NH in an aromatic ring.
SMILES | AmpC inh no det
Cc1nn(-c2nc3ccccc3[nH]2)c(N)c1-c1ccccc1 | -6%
CCOC(=O)c1ccc(N2C(=O)c3n[nH]c(C)c3C2c2ccccc2)cc1 (stereo unspecified) | 9%
CCOC(=O)c1[nH]c(C)c(C(=O)NCc2ccc(C)cc2)c1C | 13%
CCN1C(=O)c2cccc3c(S(=O)(=O)NC(Cc4c[nH]c5ccccc45)C(=O)O)ccc1c23 (stereo unspecified) | -8%
Cn1c(=O)[nH]c(=O)c2c1nc(N1CCNCC1)n2Cc1cccc2ccccc12 | 13%
CCCc1cc(=O)[nH]c(SCC(=O)N2CCN(S(=O)(=O)c3ccc(C)cc3)C2)n1 | 24%
CC(=O)NC(c1ccccc1)c1nc2ccccc2[nH]1 (stereo unspecified) | -8%
Cc1cccc(C(=O)OCc2cc3ccccc3[nH]c2=O)c1 | -1%
COc1c[nH]n(C2CCCCC2)c(=O)c1=O | -1%
CCCc1nc2ccccc2c(=O)n1/N=C/c1c(C)[nH]n(-c2ccc(C)cc2)c1=O | -20%
O=C1c2ccccc2C(=O)N1CCc1nn[nH]n1 | -1%
c1ccc2c(CN3CCN(C4CCCCC4)CC3)c[nH]c2c1 | -9%
Cc1[nH]n(-c2ccc(S(=O)(=O)O)cc2)c(=O)c1N=Nc1ccccc1 | 4%[5.75 µM]
CCOc1ccc(-n2c(SCC(=O)Nc3cc(C)on3)nc3c([nH]c4ccccc43)c2=O)cc1 | 10%
COc1ccc(N2CC(C)Cn3c2nc2c3c(=O)[nH]c(=O)n2C)cc1 (stereo unspecified) | 4%
CCC(c1nnnn1CCc1ccccc1)N(Cc1ccco1)Cc1cc2cc(C)cc(C)c2[nH]c1=O (stereo unspecified) | 56%
Cc1ccc(SCc2cc(=O)[nH]c(N3CCN(Cc4ccc5c(c4)OCO5)CC3)n2)cc1 | 68%
CC(=O)NC(Cc1c[nH]c2ccccc12)C(=O)OCC(=O)Nc1ccc2c(c1)OCO2 (stereo unspecified) | 18%
